eIF4H inh: human eIF4H binding inhibitors, primary screen, translation initiation inhibitor project, biochemical, uHTS, fluorescence polarization; Eukaryotic translation initiation factor 4H (Homo sapiens), Q15056; eIF4H fluorescence polarization binding assay; inhibition, % at 35 µM; actives 0.94% (n = 290,000);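 active means 50% or more with normal probe brightness, or confirmed in later tests; about a fifth of its hits are not listed in these tables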;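 further: calls also rest on retests at 20 µM and on dose response follow-up; 0% = protein and probe with vehicle and 100% = probe without protein; strong numbers were not always called active; many hits fall short of the cut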
CSC inhib: cancer stem cell viability inhibitors, primary screen, luminescence; AID 2717, 2010; actives 1.1% (n = 300,000); cancer stem cell-like cells viability; inhibition, % at 7.5 µM;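 active means mean at 75% or more and at least half the replicates too; tested in HMLE shEcad cells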;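 further: 0% = median of negative and 100% = median of positive control wells; the first replicate is given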
HIV Env fusion: inhibitors of HIV-1 Env-driven cell-cell fusion, primary screen, HeLa-JRFL effector, CEM21 target cells, luciferase; inhibition, % at 12.3 µM; actives 1.1% (n = 360,000); AID 651610, 2012;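 active means mean replicate inhibition score of at least 50 and every replicate individually at or above 50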;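 further: 0% = plate neutral controls and 100% = maraviroc near 300 nM; one replicate is shown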
PABP FP inh: PABP poly(A) RNA binding inhibitors, primary screen, biochemical, fluorescence polarization, uHTS | inhibition, % at 35 µM | actives 1% (n = 290,000);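 active means 50% or more with normal probe brightness, or confirmed in later tests; about a fifth of its hits are not listed in these tables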;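 further: calls also rest on retests at 20 µM and on dose response follow-up; controls were probe without protein and protein plus probe with vehicle; some compounds called inactive have numbers as strong as hits; many hits fall short of the cut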
Target sequence (P11940 whole entry, looked up): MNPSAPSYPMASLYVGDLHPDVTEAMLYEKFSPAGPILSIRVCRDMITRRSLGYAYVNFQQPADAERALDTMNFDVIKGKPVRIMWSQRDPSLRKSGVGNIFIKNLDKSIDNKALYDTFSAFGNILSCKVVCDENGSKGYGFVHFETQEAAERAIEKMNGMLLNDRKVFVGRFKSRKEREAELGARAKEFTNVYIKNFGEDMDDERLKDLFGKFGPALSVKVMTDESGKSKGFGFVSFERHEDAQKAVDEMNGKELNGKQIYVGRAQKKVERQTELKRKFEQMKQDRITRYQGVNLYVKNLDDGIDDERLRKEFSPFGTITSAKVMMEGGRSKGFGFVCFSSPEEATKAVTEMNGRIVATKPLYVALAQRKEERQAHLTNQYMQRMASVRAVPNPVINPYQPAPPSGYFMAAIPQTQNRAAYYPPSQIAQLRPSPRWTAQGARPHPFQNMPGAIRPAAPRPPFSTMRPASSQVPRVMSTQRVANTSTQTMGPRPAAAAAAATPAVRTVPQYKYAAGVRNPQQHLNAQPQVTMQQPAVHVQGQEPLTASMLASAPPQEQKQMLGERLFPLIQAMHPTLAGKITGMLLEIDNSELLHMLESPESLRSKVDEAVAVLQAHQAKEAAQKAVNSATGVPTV
Rce1 inhib: yeast Rce1p protease inhibitors, primary screen, biochemical, fluorescence, cell-free homogeneous. yeast membranes, quenched prenylated peptide cleavage fluorescence. calls only. actives 0.27% (n = 290,000);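 active means fall in fluorescence gain of 50% or more versus controls, with final raw signal at or below 3038400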;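 further: plate controls were neutral control wells for no effect and wells lacking membranes for full effect; tested at 10 µM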
MT1-MMP act inh: blockers of MT1-MMP proenzyme processing, primary screen, HT1080 RFP-PRO-GFP cells, GFP/RFP fluorescence | GFP/RFP ratio fluorescence, overnight; percent of plate control window, DMSO zero | GFP/RFP ratio change, % at 20 µM | actives 0.061% (n = 360,000) | AID 651647, 2012;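 active means GFP/RFP ratio change of at least 30% with cell ATP level not reduced by more than half and red fluorescence within 50% of control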; further: strong numbers were not always called active
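Assay system: HT1080 cells carrying an RFP-PRO-GFP reporter | Dosing: Single dose of 20 µM compound, 1% DMSO final | Incubation: Cells overnight before dosing, compound overnight, 37 °C, 5% CO2 | Evaluation: GFP/RFP fluorescence ratio | Control set: DMSO and RFP-L50D-GFP cell wells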
Yeast UUG start: modulators of yeast start codon fidelity, primary screen, whole organism, S. cerevisiae, single point, plate reader; S. cerevisiae UUG-firefly luciferase reporter, luminescence/redox ratio; activity score, % at 18.7 µM; actives 0.13% (n = 350,000); AID 602363, 2012;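 active means replicate mean at a twofold rise or more, about +100% in these data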;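 further: firefly luciferase made from a UUG start codon reports start codon fidelity; reporter light over untreated wells divided by growth signal over untreated wells; some hits fall short of that in this replicate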
eIF4H inh retest: second read-out of eIF4H inh, no call of its own (marks repeat the call); inhibition, %; compound at 20 µM; confirmation average;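 mean of two retest wells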
PABP FP inh retest: further read-out of PABP FP inh, marked with its call; inhibition, %; compound at 20 µM; confirmation repeats;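 mean of two retest wells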
MT1-MMP act inh RFP: second read-out of MT1-MMP act inh, no call of its own (marks repeat the call); RFP signal change, %; measured here: RFP expression control read;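 0 = vehicle wells; hits needed this value within 50% of zero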
* marks the source's active call; other numbers are inactive results; i = inactive; . = not tested or not shown; + = active, no number.

SMILES	eIF4H inh	CSC inhib	HIV Env fusion	PABP FP inh	Rce1 inhib	MT1-MMP act inh	MT1-MMP act inh RFP	Yeast UUG start	others
CN(C)c1nnnn1-c1ccc(Cl)cc1	-7	-2	-10	8	i	4	5	.
CN(C)c1ccc(CSc2ccccc2)cc1	.	.	6	.	.	3	-6	-14
Cc1n[nH]c(C)c1N=Nc1ccc(Br)cc1	-7	46	-13	0	i	0	1	-12
CCOc1ccc(C(C)=O)cc1CSc1nnc(-c2ccncc2)n1CCOC	2	-4	-3	2	i	-8	2	-22
COc1ccc(-n2nc3c(c2NC(=O)Cc2cccc(C)c2)CS(=O)C3)cc1 (stereo not drawn)	4	-7	-8	-3	i	1	4	-11
Cc1ccccc1NC(=S)Nc1ccc(Br)cc1	2	-13	1	26	i	0	2	.
CC1CCCC(NC(=O)COC(=O)CCC(=O)c2cccs2)C1C (stereo not drawn)	.	-20	0	.	.	3	-1	10
CC(=O)C1=C(NC(=O)c2ccccc2F)C[C@@H]2[C@H]1C2(C)C	-3	38	.	2	i	4	-6	4
O=S(=O)(c1cccc(C(F)(F)F)c1)N1CCC(CO)(CCCc2ccccc2)CC1	11	33	13	10	i	3	-6	-16
COc1ccc(-c2cc(C)no2)cc1S(=O)(=O)N1CCCCC1	-12	-14	-1	2	i	-3	-1	0
C=C(C)CNC(=O)c1ccc2nc(Cc3ccc(OC)cc3)oc2c1	-12	-3	-46	6	i	5	1	-17
CC(=O)c1cccc(NC(=O)CSc2nc(N3CCCCC3)nc(N3CCCCC3)n2)c1	-16	.	-1	-5	i	-3	-2	-3
CCC(C)NC(=O)CCS(=O)(=O)c1ccc2c(c1)n(C)c(=O)c(=O)n2C (stereo not drawn)	1	12	10	-18	i	1	4	-11
O=C(CSc1ncccn1)Nc1ccc(S(=O)(=O)N2CCCCC2)cc1	-1	-4	-9	-1	i	-4	-2	-24
O=C1CCCCCN1CP(=O)(O)CCc1ccccc1	-7	-9	.	2	i	7	4	-26
CCOc1ccc(N(CC)C(=O)c2cn(CC)c(=O)c3cc(OC)c(OC)cc23)cc1	-2	-6	10	3	i	-1	-2	6
N#Cc1cnc(SCC(=O)NNC(=O)COc2cccc3ccccc23)nc1N	-17	5	-2	0	i	2	4	-4
O=C(NC(Cc1ccccc1)C(=O)O)c1ccccc1 (stereo not drawn)	4	-10	.	-1	i	7	7	7
O=C1OCc2ccc(NC(=O)C3CCCCC3)cc21	-1	-13	.	1	i	6	3	12
CC(C)c1cccc(OCC(=O)Nc2ccc(S(=O)(=O)Nc3ccccn3)cc2)c1	16	.	19	-7	+	-1	2	3
Cc1c(/C(O)=C2/C(=O)C(=O)N(CCN3CCOCC3)C2c2ccco2)cnn1-c1ccccc1 (stereo not drawn)	.	.	-39	.	.	-5	-3	-39
Nc1ccc2nn(-c3ccc(Cl)cc3)nc2c1	22	2	-111	0	i	7	6	-18
CC(Oc1ccccc1)C(=O)Nc1c2c(nn1-c1ccccc1)CS(=O)(=O)C2 (stereo not drawn)	-2	0	5	-3	i	-2	1	-2
COc1ccccc1CN(Cc1cc2cc(C)cc(C)c2[nH]c1=O)Cc1nnnn1CC1CCCO1 (stereo not drawn)	-5	34	.	-3	i	-9	-9	0
Cc1ccc(S(=O)(=O)N2CCCCC2)c2nsnc12	3	.	-7	8	i	-3	-2	.

Ordered by number of heavy atoms (high to low): part of the list above
SMILES	eIF4H inh	CSC inhib	HIV Env fusion	PABP FP inh	Rce1 inhib	MT1-MMP act inh	MT1-MMP act inh RFP	Yeast UUG start	others
O=S(=O)(c1cccc(C(F)(F)F)c1)N1CCC(CO)(CCCc2ccccc2)CC1	11	33	13	10	i	3	-6	-16
CCOc1ccc(C(C)=O)cc1CSc1nnc(-c2ccncc2)n1CCOC	2	-4	-3	2	i	-8	2	-22
O=C(CSc1ncccn1)Nc1ccc(S(=O)(=O)N2CCCCC2)cc1	-1	-4	-9	-1	i	-4	-2	-24
Cc1ccc(S(=O)(=O)N2CCCCC2)c2nsnc12	3	.	-7	8	i	-3	-2	.

Following part
SMILES	eIF4H inh	CSC inhib	HIV Env fusion	PABP FP inh	Rce1 inhib	MT1-MMP act inh	MT1-MMP act inh RFP	Yeast UUG start	others
O=C(c1cc(COc2ccc3c(c2)CCCC3)on1)N1CCCC1	5	-5	-62	-2	.	-2	1	-2
COc1cccc(C2c3c(oc4ccc(Cl)cc4c3=O)C(=O)N2c2cc(C)on2)c1OC (stereo not drawn)	0	.	-65	-5	i	-1	-1	-16
COc1ccccc1CNS(=O)(=O)c1cccc(S(=O)(=O)N2CCOCC2)c1	-2	.	-64	1	i	0	0	30
CN(CC(=O)Nc1cc(Cl)cc(Cl)c1)Cc1cccs1	1	11	8	1	i	0	-1	-11
CC1CN(C(=O)COC(=O)c2cccc(NS(=O)(=O)c3ccccc3)c2)CC(C)O1 (stereo not drawn)	.	3	-15	.	i	4	3	8
CCCCCOc1ccc(NC(=O)C(=O)NCCC2=CCCCC2)cc1	-5	-8	.	0	i	-1	0	-4
CN1CCN(c2nc(-c3cc4ccccc4o3)cs2)CC1	-8	-18	-32	0	i	5	9	.
O=C(c1ccc(Cl)c(S(=O)(=O)N2CCOCC2)c1)N(Cc1nnc(-c2ccccc2Cl)o1)C1CC1	.	-5	-6	.	i	-8	-10	8
CCCCN(C)C(=O)c1cn(C)c2ccc(S(=O)(=O)N(C)C)cc2c1=O	-2	-3	-12	4	i	1	2	-7
COc1c2c(nc3ccccc13)OC(C(C)(O)CO)C2 (stereo not drawn)	11	-4	.	11	i	5	6	-12
CC(C)NS(=O)(=O)c1ccc(NC(=S)NC(=O)c2ccc(-c3ccccc3)cc2)cc1	0	8	-26	-2	i	-2	-16	-21
CC(C)(C)[C@@H]1COC(=O)[C@H](Cc2ccc(F)cc2)C/C=C\C[C@H](CC(=O)N(CCO)Cc2ccccc2)C(=O)N1	.	-9	36	.	.	12	-5	7
CCN(c1ccccc1)S(=O)(=O)c1cccc(C(=O)NCC(c2ccco2)N2CCCC2)c1 (stereo not drawn)	0	-4	-5	-6	i	-3	-2	-6
Clc1ccc(-c2cn3c(n2)CCC3)cc1	-3	-1	.	2	i	5	-5	-11
S=c1[nH]c2ncccc2o1	2	5	.	-1	i	6	5	.
CCOC(=O)C(CC)n1nc(C)n2c(cc3occc32)c1=O (stereo not drawn)	-4	-21	-57	-3	i	2	-7	-2
C=CCN(c1ccccc1)S(=O)(=O)c1cccc(C(=O)N2CC(C)CC(C)C2)c1 (stereo not drawn)	-15	-4	34	-6	i	-4	-25	89
O=C(CSc1nc2ccccc2[nH]1)NCc1ccc(F)cc1	-1	-9	-5	-24	i	0	0	-13
Cc1ccc(S(=O)(=O)n2ccc3c(OCCOCCSCC(NC(=O)OC(C)(C)C)C(=O)O)cccc32)cc1 (stereo not drawn)	31	5	-13	19	i	3	-12	4
O=c1[nH]c([N+](=O)[O-])nn1C(c1ccccc1)c1ccccc1	3	3	-3	4	i	1	4	-19
CCOC(=O)N1CCC(=NNc2ncc(C(F)(F)F)cc2Cl)CC1	10	22	-16	0	i	5	6	-24
COc1cccc(OCc2cc(C(=O)N(C)C3CC(C)(C)NC(C)(C)C3)no2)c1	56	4	19	29	i	-5	-1	-12	eIF4H inh retest=8;PABP FP inh retest=20
Cc1ccc(C)c(C(=O)CSc2nc(C)cc(=O)[nH]2)c1	-9	-7	5	-3	i	3	0	1
CCOc1ccccc1OCCC(=O)Nc1ccc2c(c1)OCO2	.	-1	-26	.	.	3	-3	-13
CC(=O)Nc1cc(-c2ccccc2)nn1Cc1ccc(Cl)cc1	1	.	.	-13	i	1	-2	0
Next part.
SMILES	eIF4H inh	CSC inhib	HIV Env fusion	PABP FP inh	Rce1 inhib	MT1-MMP act inh	MT1-MMP act inh RFP	Yeast UUG start	others
CC(=O)NC(c1ccccc1)c1nc(-c2cnc3ccccc3c2)cs1 (stereo not drawn)	.	.	-2	.	.	-1	-2	-40
CC(C)c1ccc(OCc2nnc(SCC(=O)N3CCCCC3)o2)cc1	-10	15	5	4	i	-1	-6	8
O=C(CNC1CCCCCC1)Nc1ccc(N2CCCC2)cc1	-6	4	.	-13	i	.	.	.
O=C1CSC(c2ccccc2)N1c1ccccc1F (stereo not drawn)	-11	-16	-2	9	i	1	2	-11
CCCCn1cnc2sc3c(c2c1=N)CCCC3	-2	5	-26	-6	i	0	3	.
CSc1nnc2c(n1)[nH]c1c(C)cccc12	-4	3	.	4	i	8	-6	-15
COC(=O)c1ccc(NC2CC(=O)N(c3ccccc3C)C2=O)cc1 (stereo not drawn)	1	-6	.	-6	i	-5	7	0
C[C@@H]1CCC(=O)N(CC[C@H](Sc2ccc(Br)cc2)c2ccccc2)CC1	.	97*	45	.	.	-12	-16	-6
NC1=NS(=O)(=O)NC1c1ccc(Br)cc1 (stereo not drawn)	-6	-3	-2	4	i	1	-3	.
O=C(Cn1cnc2c(nnn2Cc2ccc(F)cc2)c1=O)N1CCN(c2ccccc2)CC1	-3	.	6	-9	i	7	0	7
CCOC(=O)c1ccccc1NC(=O)Cn1cnc2c1c(=O)n(C)c(=O)n2C	-5	-12	.	-4	i	1	1	-17
Cc1cccc(-n2ncc3c2CCCC3NC(=O)CC(F)(F)F)c1C (stereo not drawn)	2	-8	2	8	i	3	-6	-9
COCCNC(=O)C(c1ccc(O)cc1)N(Cc1ccccc1)C(=O)CCC(=O)Nc1nccs1 (stereo not drawn)	-20	-8	-8	-8	.	0	0	-7
CC1CC(C)CN(C(=O)C2CCC(CNS(=O)(=O)c3ccccc3)CC2)C1 (stereo not drawn)	-7	4	-4	2	i	-2	-2	0
COc1ccc(C(=O)CSc2nnc(Cn3nnc4ccccc43)n2C)cc1	-3	-12	.	-9	i	5	2	-10
C[C@H](NC(=O)OC(C)(C)C)C(=O)N/N=C/C1=Cc2ccccc2OC1	-5	-14	-13	1	i	-1	-1	-13
CCOc1ccc(CN(C)CC(=O)Nc2cc(OC)c([N+](=O)[O-])cc2C)cc1	1	-9	25	19	i	0	-3	1
CC(c1ccccc1)C(CC(=O)O)C(=O)Nc1ccc(Cl)c(Cl)c1 (stereo not drawn)	0	-6	-4	5	i	0	1	7
Cc1noc(C(=O)N2CCN(Cc3ccc4c(c3)OCO4)CC2)c1Cl	-10	-5	-11	-5	i	1	0	-3
Cc1cccc(C)c1OCc1nnc(NC(=O)CSc2ccc(Cl)cc2)s1	-6	-4	7	4	i	1	-1	1
c1coc(-c2ccnc(-c3ccncc3)n2)c1	5	-15	-19	3	i	-6	-1	.
COc1ccc(C(=O)NCC(=O)N2CCN(c3ccc(Cl)cc3)CC2)cc1	0	-13	14	0	i	2	-6	-18
COc1ccc(CCNC(=O)c2ccc(N(C)S(=O)(=O)c3ccc(C)cc3)cc2)cc1OC	-3	17	14	-11	i	1	-5	24
O=C(NCCCN1CCOCC1)c1cc(S(=O)(=O)N2CCN(c3ccccc3)CC2)ccc1Cl	.	33	.	.	i	1	-1	-15
COc1ccc(OC)c(CN2CCN(C(=O)CNC(=O)c3cc(C)cc(C)c3)CC2)c1	.	-2	7	.	.	2	-3	-2
COc1cc(OC)c(C(=O)NNC(=O)CN(C)S(=O)(=O)c2ccc(Cl)cc2)cc1OC	.	-14	-6	.	i	3	1	.
COc1ccc(NC(=O)C2Cc3c(-c4cccc(F)c4)ccnc3O2)cc1OC (stereo not drawn)	.	.	44	.	.	8	-26	-6

Screens as filed in PubChem BioAssay.

These rows are one share of the data. The share of hits here may be higher or lower than overall.
